Screening results (PubChem)
Vaccinia Venus – qHTS for Stage-Specific Inhibitors of Vaccinia Orthopoxvirus: Venus Reporter Primary qHTS; Vaccinia virus Venus reporter expression, fluorescence; Potency, µM (highest dose often 36.5 µM), inactives show at the top dose activity change, negative = inhibition, most hits filed as inhibitors; 330,000 tested, 0.46% active; active means well fitted inhibition curve with a large enough effect; inconclusive means small, poorly fitted or top-dose-only effect; inactive means no such curve, though single readings can be large or run the other way; tested in A549 cells; note: nearly all actives have a fitted effect of over 30% in size; inactives centre near -10
VACV mCherry inh – qHTS for Stage-Specific Inhibitors of Vaccinia Orthopoxvirus: mCherry Reporter Primary qHTS; Vaccinia virus mCherry reporter infection, fluorescence; about a quarter of the inactives have no number; Potency, µM (doses to about 36.5 µM), without a hit: at the top dose activity change, negative = inhibition, hits mostly inhibitors; 310,000 tested, 0.63% active; active = well fitted inhibition curve with a large enough effect; inconclusive = small, poorly fitted or top-dose-only effect; inactive = no such curve, though single readings can be large or run the other way; tested in A549 cells; note: nearly all actives have a fitted effect of over 35% in size; inactives centre near -10
Starred values were filed as active, the others as inactive; i = inactive; ? = inconclusive; · = not tested or not shown; [ ] = dose if it differs, or a comment. % is set by controls: 0 for no effect and ±100 for the full control effect; potency is the fitted concentration of half-maximal effect.

Structure,VACV mCherry inh,Vaccinia Venus
CC1(C)C[C@H](O)[C@]2(CO)CC[C@]3(C)C(=CCC4[C@@]5(C)CC[C@H](O)C(C)(C)C5CC[C@]43C)[C@@H]2C1 (stereo not given in full),-18.3%,-19.2%
O=C(O)/C=C/C(=O)Nc1ccc(N2CCOCC2)nc1N1CCOCC1,i,2.7%
CCOc1ccc2nc(/N=C/c3c(C)[nH]n(-c4ccccc4)c3=O)sc2c1,-21.3%,-11.4%
O=C(Cc1ccc([N+](=O)[O-])cc1)NC(C(=O)O)C(O)c1cccc([N+](=O)[O-])c1 (stereo not given),i,-8.2%
N#CC1=C2SCN(C3CCCCC3)CN2C(=O)CC1c1c(F)cccc1Cl (stereo not given),-16.9%,-10.8%
S=c1nc(-c2ccco2)[nH][nH]1,·,-22.6%
Cc1nn(-c2cc(N3CCCCC3)ccc2N)c(=O)c2ccccc12,i,-15.0%
O=C(O)CN1c2cccc3cccc(c23)S1(=O)=O,i,-4.7%
CCC(C)n1c(=N)c(C(=O)NC2CCCCC2)cc2c(=O)n3cc(C)ccc3nc21 (stereo not given),-23.1%,-21.7%
COc1ccc(CNC(=O)C2(C)Cc3c(-c4cccc(NC(C)=O)c4)ccnc3O2)cc1OC (stereo not given),5.4%,-15.1%
O=C(c1ccc(NS(=O)(=O)c2cccc([N+](=O)[O-])c2)cc1)N1CCCCCC1,-1.2%,-5.2%
CC(C)[C@@H]1CN=C(N)N1C[C@@H]1CCCN1C[C@H](C)N1C[C@@H](Cc2ccccc2)N(CCc2ccc(Cl)c(Cl)c2)C1=N,-15.6%,0.0%
Cc1ccc2oc(-c3ccc(C)c(NC(=O)Cc4cccs4)c3)nc2c1,i,-7.2%
Cc1ccc(CNC(=O)C2CC(=O)N(C3CCCCCC3)C2)cc1 (stereo not given),7.8%,5.4%
CC(=O)c1cccc(NC(=O)c2sc(-n3nc(C)c(CCC(C)C)c3C)nc2C)c1,?,?
COc1cccc(NC(=O)N(Cc2ccco2)C(C)c2cccs2)c1 (stereo not given),-11.2%,-8.1%
CC(CNC(=O)CN1C(=O)CCSc2ccccc21)c1ccccc1 (stereo not given),-4.0%,-14.8%
Cc1cc(=O)[nH]c(SCC(=O)c2ccccc2)c1C#N,i,-14.7%
Clc1ccc2c(-c3ccccc3)nc(-c3cccs3)nc2c1,-11.6%,-5.8%
CS(=O)(=O)N(CC(=O)NCc1ccco1)Cc1ccc(Cl)cc1,-4.7%,1.8%
O=C1C=C(N2CCOCC2)c2ccccc2C1=O,?,11.2µM*
Cc1cc(C)n(CC(C)NCc2cn[nH]c2-c2ccc(C)c(C)c2)n1 (stereo not given),-9.0%,-7.5%
CC[C@]1(C(=O)OC)[C@H]2C(=O)N(C)C(=O)[C@H]2[C@H]2CN=C(SCc3ccc(Cl)cc3)N21,i,-10.6%
CCNc1nc(N)nc(Oc2ccc(C(=O)OC)cc2)n1,·,0.4%
O=C(CCn1[nH]c(=O)c2ccccc2c1=O)OC1CCCCC1,-5.9%,-15.5%

Quoted at random: five compounds from above.
Structure,VACV mCherry inh,Vaccinia Venus
COc1cccc(NC(=O)N(Cc2ccco2)C(C)c2cccs2)c1 (stereo not given),-11.2%,-8.1%
CCC(C)n1c(=N)c(C(=O)NC2CCCCC2)cc2c(=O)n3cc(C)ccc3nc21 (stereo not given),-23.1%,-21.7%
COc1ccc(CNC(=O)C2(C)Cc3c(-c4cccc(NC(C)=O)c4)ccnc3O2)cc1OC (stereo not given),5.4%,-15.1%
CC(CNC(=O)CN1C(=O)CCSc2ccccc21)c1ccccc1 (stereo not given),-4.0%,-14.8%
O=C(Cc1ccc([N+](=O)[O-])cc1)NC(C(=O)O)C(O)c1cccc([N+](=O)[O-])c1 (stereo not given),i,-8.2%

Remaining list, next part:
Structure,VACV mCherry inh,Vaccinia Venus
OCC[C@@H]1C[C@@H](O)[C@H](O)[C@]2(OCCc3ccccc32)O1,i,-2.1%
Cc1nc(-c2ccc(NC(=O)CC(C)C)cc2)cs1,i,-13.8%
CCOc1ccccc1NC(=O)C1CCN(S(=O)(=O)c2ccccc2)CC1,0.4%,3.1%
CCc1nnc(NC(=O)CCC(=O)N2CCN(Cc3ccccc3)CC2)s1,i,-13.3%
O=C(CN(CC1CCCO1)C(=O)CNS(=O)(=O)c1ccc(Cl)cc1)NC1CCCC1 (stereo not given),-20.3%,-3.7%
C=CCOC(=O)/C(=C\c1ccccc1)NC(=O)c1ccco1,-6.3%,3.5%
CC(=O)Nc1cccc(C(=O)OCC(=O)NC(=O)C2CCCCC2)c1,-8.2%,-15.7%
CC(C)CC(CO)N1CCN(C(=O)c2cccc(Cl)c2)CCC1=O (stereo not given),i,-18.7%
O=C(CCC1CCCC1)Nc1nnc(-c2ccc3c(c2)OCO3)s1,-14.2%,-0.9%
Cc1nn(-c2ccc(C(=O)O)cc2)c(C)c1Cl,-0.4%,-12.8%
N#Cc1c(N)nc2c(c1N)CC(CO)O2 (stereo not given),i,-11.0%
COc1cc(OC)cc(C(=O)Nn2cc(C(=O)Nc3ccccc3F)c3ccccc3c2=O)c1,-13.0%,-15.1%
O=C(O)c1cc([N+](=O)[O-])ccc1C(=O)Nc1cccc([N+](=O)[O-])c1,-5.2%,2.8%
O=C(Cn1nc(Cc2cccnc2)c2ccccc2c1=O)NCCCN1CCCC1=O,-4.8%,-5.1%
CC(C)(O)C#CC#CCN1CCOCC1,·,-15.4%
CCCCCCCOc1ccc(OC(=O)c2ccncc2)cc1,20.6%,39.0%[activator]
CC(=NCCc1c[nH]c2ccccc12)c1c(O)n(Cc2ccccc2)c(=O)[nH]c1=O,-17.5%,-16.4%
CCOC(=O)c1ccc(N2CCN(c3cc(C)ccc3C)CC2)c(NC(=O)Nc2ccccc2)c1,4.2%,3.9%
COCCNC(=O)c1ccc2c(c1)N=C(C)c1cc(C)ccc1S2,?,-29.2%
Cc1ccc(CNC(=O)Cc2cn(C)c3ccccc23)cc1,-10.9%,-3.7%
CN(C)CCCn1c(-c2ccc(Cl)cc2)csc1=Nc1ccccc1,-14.0%,1.0%
COC(=O)C1=C(c2ccc(F)cc2OCc2ccccc2)C[C@@H]2CC[C@H]1N2C(=O)NCc1ccc(OC)cc1,-13.0%,?
O=C(CSc1nc2[nH]ncc2c(=O)n1-c1ccc(Cl)c(Cl)c1)NCc1ccccc1Cl,-29.9%,-22.7%
COc1cc(C(=S)N(C)C)ccc1O,-14.1%,-8.7%
O=c1c2ccccc2ncn1Cc1nc2ccccc2s1,·,-6.4%
O=C(C(=O)N1CCN(C(=O)c2ccco2)CC1)c1cc2ccccc2o1,?,-2.0%
COC(=O)c1ccc(C23CC4(C2)[C@H](CN(CC2CCCCC2)[C@@H]4c2ccccc2)C3c2ccc(Cl)nc2)cc1 (stereo not given in full),-3.1%,-8.9%
COc1ccc2[nH]cc(CCNc3nc(-c4ccoc4)nc4ccccc34)c2c1,-18.8%,-16.9%
O=C(NCCO)c1c(O)c2cccc3c2n(c1=O)CC3,-10.5%[1.46 µM],-2.8%
COc1ccc(NS(=O)(=O)c2ccc3ccccc3c2)c2ncccc12,?,13.7%
COc1cc(NC(=S)NN2CCN(C)CC2)cc(OC)c1,-11.9%,-11.7%
CC(OC(=O)C1CCCC1)C(=O)Nc1ccc(S(N)(=O)=O)cc1 (stereo not given),-7.6%,-4.2%
Nc1ccc2c(c1)[nH]c(=O)c1ccccc12,-15.7%,-26.0%
CCOc1ccc(-n2nnc3c(=O)n(CC(=O)Nc4cc(C)on4)cnc32)cc1,-28.2%,-18.5%
O=C(c1cc(C2CC2)on1)N1CCN(c2ccccc2)CC1,-9.3%,7.7%
COc1ccc(NC(=O)COc2ncnc3ccccc23)cc1S(=O)(=O)N1CCOCC1,i,-6.9%
CC1CC(C)CN(S(=O)(=O)c2ccc(Cl)cc2)C1 (stereo not given),-8.4%,-11.7%
CCNc1nn2ccccc2c1/C=C(\C#N)C(=O)OCC,-19.1%,-29.8%
CC(=O)OCC(=O)C1(O)CCC2C3CCC4=CC(=O)CCC4(C)C3(F)C(O)CC21C (stereo not given),-13.2%,-8.4%
CC(=O)Nc1cccc(NC(=O)CSc2nnnn2Cc2ccccc2)c1,-21.3%,-20.3%
Cc1c(C=O)c2ccccn2c1C(=O)c1ccc(Cl)c([N+](=O)[O-])c1,0.4%,6.3%
CCS(=O)(=O)n1nc(-c2ccc(C)cc2)nc1N,-13.2%,1.2%
OCCNCCO,-2.9%,0.8%
Cn1cc(CN(CCO)Cc2cccs2)c(-c2ccccc2F)n1,-21.0%,-10.4%
CCOC(=O)c1nn(-c2ccc3c(c2)CCN3C(C)=O)cc1O,-17.5%,-5.8%
Cn1c(/C(C#N)=C(\O)c2ccc([N+](=O)[O-])s2)nc2ccccc21,-1.8%,-4.4%
COc1ccc(NC(=O)c2c(C)oc3ccc(O)c(CN4CCCC4)c23)cc1Cl,-1.2%,-3.9%
CCCC(=O)NCC1(N(C)C)CCCCC1,-13.0%,10.4%
O=C(Nc1ccccc1C(=O)N1CCCCC1)c1ccco1,0.8%,9.5%
COc1ccc2[nH]c(C(=O)N3CCC(Cc4ccccc4)CC3)cc2c1,-14.9%,-10.3%

More records.
Structure,VACV mCherry inh,Vaccinia Venus
Cc1nc(N2CCN(Cc3ccccc3)CC2)nc2c1CCC2,i,-16.4%
Cc1nc(Nc2ccc(Cl)cc2)c2nnn(Cc3ccccc3)c2n1,-18.0%,-6.3%
O=C(c1cc([N+](=O)[O-])ccc1N1CCCCC1)N1CCCC1,-12.2%,-5.6%
O=C(O)c1ccc(Cn2cc(Cl)cn2)cc1,i,-13.7%
COc1ccc(S(=O)(=O)NCCOc2cccc3cccnc23)cc1OC,i,-2.8%
O=C1CSC(c2cccc([N+](=O)[O-])c2)N1C1CC2CCC1C2 (stereo not given),-3.1%,-17.6%
Cc1ccc(C(=O)c2oc3ccccc3c2NC(=O)Cc2coc3ccc(C)cc23)cc1,-8.2%,-0.6%
O=Cc1ccc(OCC(=O)Nc2ccccc2-c2ccccc2)cc1,-16.3%,-2.8%
CC(/C=N/n1c(-c2ccccc2)n[nH]c1=S)=C\c1ccco1,i,-5.3%
CCOC(=O)N1CCc2c(sc3c2c(=O)n(-c2ccc(F)cc2)c(=O)n3CC(=O)c2ccccc2)C1,-10.3%,-12.6%
CC(C)C[C@@H]1Cc2[nH][nH]c(=O)c2[C@H](C)O1,30.0%,-1.4%
CCCN=C1N/C(=C\c2ccco2)C(=O)N1c1ccccc1,·,-18.9%
CCOC(=O)C1C(O)=CC(=O)CC1c1ccccc1 (stereo not given),i,-1.9%
COC(=O)c1ccc(CN2CCC(n3nccc3NC(=O)C3CC3)CC2)cc1,-3.9%,-6.9%
O=C(CSc1nc2nn(-c3ccccc3)c(=O)c-2c2n1CCCCC2)NCCCc1ccccc1,-9.0%,-2.5%
CCC(CC)C(=O)NCc1ccc(Cl)cc1,-13.8%,-1.6%
CC(C)(C)C(=O)NC(=S)Nc1ccccn1,-5.5%,0.4%
Cc1cccc(NC(=O)CSc2nc(C)c(CC(=O)c3ccc(Br)cc3)c(C)c2C#N)c1C,·,-4.8%
O=C(N/N=C/c1ccco1)c1cc(Br)ccc1OCc1ccccc1,i,1.2%
Oc1ccc(C[C@H]2CNC(=S)N2CC2CCCN2C[C@H](Cc2ccc(O)cc2)N2C[C@H](Cc3ccccc3)N(CC3CCCCCC3)C2=S)cc1 (stereo not given in full),?,?
Cc1sc2ncn(CC(=O)Nc3cccc(C(F)(F)F)c3)c(=O)c2c1S(=O)(=O)N1CCN(C)CC1,-14.0%,1.1%
C/C(=N\Nc1nc(N)cc(Cl)n1)c1ccc(F)cc1,-10.6%,-13.8%
Cc1nc(-c2ccccc2)sc1-c1nnc(C2CC2)o1,-4.2%,-16.2%
COc1cccc(N2CCN(C(=O)CC(NC(=O)c3ccccc3)c3ccccc3)CC2)c1 (stereo not given),-20.2%,-9.0%
Cc1cc(C)c2cc(C#N)c(NCCCNC(=O)c3cccnc3)nc2c1,-23.1%,-23.1%
Cc1c(CN2CCC(CO)(CCOc3ccccc3)CC2)c(=O)n(-c2ccccc2)n1C,-2.0%,-6.3%
O=C(NNC(=O)c1cccnc1)Nc1ccccc1,-24.4%,-7.0%
Cc1ccc(C(=O)O)cc1NC(=O)c1ccc(Cn2nc(C)c(Cl)c2C)o1,-9.5%,-7.8%
COC(=O)c1ccccc1NC(=O)CSc1ncccn1,-5.8%,-22.0%
CC1=NN(c2ccc([N+](=O)[O-])cc2)C(=O)C1,-5.2%,-13.0%
O=C(CSc1nc2ncc(Cl)cc2[nH]1)N1CCOCC1,i,0.0%
CN(C)C(=O)COc1ccc(Br)cc1,-14.8%,-4.8%
CC(Oc1ccccc1)C(=O)Nc1ccc(S(=O)(=O)N2CCCC2)cc1 (stereo not given),-19.1%,-12.4%
CCOCCCNC(=O)C(NC(=O)CC1NC(=O)NC1=O)c1ccc(Cl)cc1 (stereo not given),i,-11.4%
COc1ccc(-c2nnn(Cc3nc(N)nc(N4CCOCC4)n3)n2)cc1OC,·,-4.3%
CCOC(=O)N1CCC(NC(=O)c2cnc3n(c2=O)CCS3)CC1,8.1%,5.0%
